Source: PubChem
Six1-Eya2 inh: blocks human Six1 binding to Eya2. AlphaScreen GST-Six1/His-Eya2 binding, biochemical; hits give low values; control for the full effect not named in the record. Q15475+O00167. hit rate 0.56% among 360,000. activity change, % (no concentration beside the values); in the data active = activity change below about -65%; inconclusive = about -30% to -65%; inactive = above about -30%; note: % is set by controls: 0 for no effect and ±100 for the full control effect; compound concentration not given in the record
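AlphaScreen luminescence read after one hour at 37 °C in darkness. Pin-transferred compounds met GST-Six1 and His-Eya2 protein (5X stock 250 nM/500 nM) plus glutathione donor and Ni-chelate acceptor beads (5X, 50 ug/mL).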
D2 agonist: activates the human D2 dopamine receptor; P14416; DiscoveRx PathHunter D2 beta-arrestin, luminescence, 90 min; 100% = 57 uM dopamine signal; activation, % (test concentration not listed); hit rate 0.084% among 360,000; AID 624465; in the data active = activation above about 40%; inconclusive = about 15% to 40%; inactive = below about 15%; note: compound concentration not given in the record; the text of the record calls up to 30% inactive
Target sequence (P14416 whole entry, looked up): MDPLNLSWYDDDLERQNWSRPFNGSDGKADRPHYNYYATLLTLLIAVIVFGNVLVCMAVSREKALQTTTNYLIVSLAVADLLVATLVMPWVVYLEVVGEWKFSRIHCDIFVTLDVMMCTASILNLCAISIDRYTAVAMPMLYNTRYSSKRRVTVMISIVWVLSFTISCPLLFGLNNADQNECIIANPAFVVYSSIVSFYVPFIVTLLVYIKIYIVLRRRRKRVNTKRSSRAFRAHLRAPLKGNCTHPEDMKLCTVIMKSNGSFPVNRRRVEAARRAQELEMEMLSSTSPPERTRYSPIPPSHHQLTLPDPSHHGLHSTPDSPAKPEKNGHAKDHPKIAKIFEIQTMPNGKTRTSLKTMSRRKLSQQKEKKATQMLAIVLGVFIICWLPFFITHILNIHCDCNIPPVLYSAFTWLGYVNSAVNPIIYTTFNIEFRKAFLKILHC
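DiscoveRx PathHunter D2 beta-arrestin cells (2,100/well) attached overnight, then compound-stimulated 90 min at 37 C in HBSS/10 mM HEPES/0.1% Tween-20 buffer; beta-galactosidase complementation read by luminescence after 1 h at ambient temperature. Dopamine 57 uM final (EC100) as control.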
TRPML1 inh: inhibitors of human TRPML1 channel. hit rate 0.02% among 390,000. TRPML1-inducible cells, Ca2+ dye fluorescence, FDSS; hits give low values; inhibition of EC80 agonist-evoked calcium signal. Q9GZU1. activity change, negative = inhibition, % (no concentration beside the values); in the data active means activity change below about -50%; inconclusive means about -30% to -50%; inactive means above about -30%;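 note: stimulus is agonist 54-4 at its EC80 concentration; % is set by controls: 0 for no effect and ±100 for the full control effect; compound concentration not given in the record; the text of the record puts the active cut at -80%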
Target sequence (Q9GZU1 whole entry, looked up): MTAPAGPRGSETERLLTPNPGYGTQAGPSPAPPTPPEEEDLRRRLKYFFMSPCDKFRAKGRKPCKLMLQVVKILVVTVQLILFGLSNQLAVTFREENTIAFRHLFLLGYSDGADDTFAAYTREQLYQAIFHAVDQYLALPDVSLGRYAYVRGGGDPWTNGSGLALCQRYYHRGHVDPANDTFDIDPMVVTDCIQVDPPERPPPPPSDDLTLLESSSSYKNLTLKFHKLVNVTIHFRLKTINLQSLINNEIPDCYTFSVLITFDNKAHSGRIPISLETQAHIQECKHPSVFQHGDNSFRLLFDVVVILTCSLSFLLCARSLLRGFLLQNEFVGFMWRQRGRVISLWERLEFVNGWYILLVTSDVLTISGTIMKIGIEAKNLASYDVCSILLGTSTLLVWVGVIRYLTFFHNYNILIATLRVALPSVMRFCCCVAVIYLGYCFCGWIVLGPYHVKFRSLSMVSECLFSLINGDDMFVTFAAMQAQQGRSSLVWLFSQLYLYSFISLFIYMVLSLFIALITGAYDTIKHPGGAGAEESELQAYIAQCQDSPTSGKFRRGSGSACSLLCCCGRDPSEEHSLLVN
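Tet-induced TRPML1-DL cells loaded with Ca8 no-wash calcium dye were read kinetically on FDSS. Compound addition was followed by EC80 agonist 54-4 (4 uM final); inhibition was read over 110 s.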
PINK1 expr mod: changes PINK1 expression | PINK1 immunofluorescence, high-content cytometry, 24 h | Potency, µM (top dose mostly 76.6 µM), for the others: top-dose activation (PINK1 increase), most hits filed as activators | hit rate 0.2% among 410,000 | AID 624263; active = well fitted activation curve with a large enough effect; inconclusive = small, poorly fitted or top-dose-only effect; inactive = flat fitted curve, though single readings scatter; cell line not stated here;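 note: potency is the fitted concentration of half-maximal effect; % of control where 0% means no effect; nearly all actives have a fitted effect of over 65% in size; a mitochondrial uncoupler was the plate control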
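Measures PINK1 amount and localization on or inside mitochondria by immunofluorescence. Stable cells get compounds at 5 concentrations for 24 hours before fixation and staining; CCCP controls included.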
D2 potentiator: human D2 receptor positive allosteric modulation; AID 624464; hit rate 0.23% among 360,000; P14416; potentiation, % (concentration not given with the values); DiscoveRx D2 beta-arrestin cells, luminescence, 90 min; 100% = 57 uM dopamine signal; active = potentiation of 50% or more; inconclusive = 30% to 50%; inactive = 30% or less;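 note: compound concentration not given in the record; tested on top of an EC20 dose of dopamine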
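PathHunter D2 cells, attached overnight at 37 deg C, received compound in DMSO plus dopamine at EC20 (50 nM final) for 90 min at 37 deg C. Beta-arrestin recruitment was read as luminescence after 1 h with detection reagent at ambient temperature.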
TRPML1 ag: human mucolipin-1 channel agonism; Q9GZU1; TRPML1-expressing cells, Ca2+ dye fluorescence, FDSS; host cell line not named in the record; reference of the full effect not given here; activation, % (concentration not given with the values); hit rate 0.12% among 410,000; AID 624414; in the data active = activation above about 50%; inconclusive = about 30% to 50%; inactive = below about 30%; note: 0% is about no effect; the text of the record puts the active cut at 80%
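Tet-induced TRPML1-DL cells, 1,500 per well, cultured overnight, were loaded with a no-wash Ca2+ dye for 45–90 min. Calcium fluorescence was recorded on the FDSS for 110 s after compound addition, before the EC80 agonist (4 uM 54-4) was added.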
An asterisk follows results filed as active; u = inconclusive; x = no result given; & = joins results of further samples; [ ] = another dose, or the depositor's remark.

Structure	D2 potentiator	D2 agonist	TRPML1 ag	PINK1 expr mod	Six1-Eya2 inh	TRPML1 inh
Cc1ccc(C)n1-c1nnc(N2CCCC(C(=O)NCc3cccc(Br)c3)C2)s1 (stereo unspecified)	x	x	-1.0	2.9%	x	24
Cc1nc2c(-c3ccc(Cl)cc3)cnn2c(N)c1-c1ccc(F)cc1	-10	4.1	0.7	12%	3	-14
O=C1CC(c2ccc(O)cc2)Oc2cc(O)ccc21 (stereo unspecified)	-1	-0.5	1.1	-0.4%	20	4
Cc1nc2cnccc2n1C	-1	3.4	-0.4	0.3%	15	-2
CC1CCN(C(c2ccc(N(C)C)cc2)c2nnnn2Cc2ccccc2)CC1 (stereo unspecified)	4	-0.8	1.8	1.4%	-4	4
CCOc1ccccc1NC(=O)N1CCC(NC(=O)c2cccc(C)c2)CC1	-29	-2.6	4.7	-4.1%	-4	5
CC(C)C(NS(=O)(=O)c1cccc2nsnc12)C(=O)NCc1ccc2c(c1)OCO2 (stereo unspecified)	-5	-2.1	-0.8	3.0%	2	24
O=C(Nc1scc(-c2cccs2)c1C(=O)O)c1cccs1	-26	-3.3	-0.5	-2.9%	u	-11
Cc1ccc(-n2c3nc(=O)[nH]c(=O)c-3cc3c(C)nn(-c4ccccc4)c32)cc1C	x	x	0.1	-0.2%	x	15
O=C(CC(c1cccs1)N1Cc2ccccc2C1=O)Nc1ccccc1 (stereo unspecified)	x	x	3.1	-3.5%	x	0
N#Cc1cc(C(=O)Cc2ccccc2)c[nH]1	-6	0.3	1.3	-3.9%	-10	30
CC(=O)c1ccc(NC(=O)CN2C(=O)NC3(CCCc4ccccc43)C2=O)cc1 (stereo unspecified)	-2	-2.9	-0.1	-0.1%	-1	-9
CC(=O)Oc1ccc2nc(/C=C/c3ccccc3)oc(=O)c2c1	1	0.2	0.5	5.1%	2	15
c1ccc(-c2cnc(-c3ccccc3)nc2)cc1	-8	1.3	-0.4	-2.3%[38.3 µM]	9	-14
COc1cc(/C=C(\C#N)C(=O)N2CCc3ccccc32)ccc1O	-14	-3.5	2.0	-0.3%	4	-17
CC(=O)Nc1nonc1-c1nc2ccccc2n1CCC(C)C	-24	-0.6	2.9	u	4	7
CCN(CC)C(CNC(=O)c1cc(=O)[nH]c2ccccc12)c1ccccc1Cl (stereo unspecified)	2	-1.4	-0.8	1.9%	2	15
Cc1sc(NC(=O)c2cccnc2)nc1-c1ccccc1	-2	-4.7	1.0	3.1%	-2	8
CCn1nnc(NC(=O)c2ccc(Br)o2)n1	2	-1.2	-0.8	0.1%	-4	-4
COc1cccc(OC)c1C(=O)NC(=S)Nc1ccc2c(c1)C(=O)N(C)C2=O	-21	-3.2	3.2	1.3%	12	-2
COC(=O)c1ccc(C(=O)Nc2ccc3nc(-c4cccnc4)[nH]c3c2)cc1	5	0.3	0.1	-0.1%	0	0
COc1ccc(S(=O)(=O)N(C)C[C@H]2OCCCC[C@H](C)Oc3ccc(N(C)C)cc3C(=O)N([C@H](C)CO)C[C@@H]2C)cc1	3	-4.7	1.4	0.7%	-7	9
Clc1ccccc1CSc1ncccn1	-9	-0.6	-0.5	-0.3%[38.3 µM]	19	0
CC(OC(=O)Cn1cnc2c1c(=O)n(C)c(=O)n2C)C(=O)NC1CCCCC1C (stereo unspecified)	0	-0.7	0.8	-1.5%	3	22
c1ccc(Cn2c(CNc3nc4ccccc4n3CCN3CCOCC3)nc3ccccc32)cc1	-18	-3.0	2.0	-2.6%[38.3 µM]	-8	1

Sorted by molecular weight (ascending): part of the list above
Structure	D2 potentiator	D2 agonist	TRPML1 ag	PINK1 expr mod	Six1-Eya2 inh	TRPML1 inh
O=C1CC(c2ccc(O)cc2)Oc2cc(O)ccc21 (stereo unspecified)	-1	-0.5	1.1	-0.4%	20	4
CC(=O)Nc1nonc1-c1nc2ccccc2n1CCC(C)C	-24	-0.6	2.9	u	4	7
CCN(CC)C(CNC(=O)c1cc(=O)[nH]c2ccccc12)c1ccccc1Cl (stereo unspecified)	2	-1.4	-0.8	1.9%	2	15

The listing continues.
Structure	D2 potentiator	D2 agonist	TRPML1 ag	PINK1 expr mod	Six1-Eya2 inh	TRPML1 inh
Cc1ccc(NC(=O)c2ccc3c(c2)C(=O)N(c2cc(C)ccc2C)C3=O)nc1	2	-5.1	-0.8	5.3%	0	10
Cc1cccc(Nc2nc(-c3ccc(O)c(O)c3)cs2)n1	4	u	1.1	10%	-3	-19
CCN(CC)CCC(c1ccc2c(c1)OCO2)c1c(OC)cc(OC)c2c(-c3ccccc3)cc(=O)oc12 (stereo unspecified)	-29	0.1	-0.3&1.2	0.2%	-17	-12&1
C=CCn1c(SCC(=O)Nc2cc(OC)c(NC(=O)c3ccco3)cc2OC)nnc1-c1ccncc1	1	-4.4	-1.0	1.9%	-20	23
O=C(NC1CCCCC1)[C@H](CSCc1ccccc1)N1Cc2ccccc2C1=O	0	-3.2	1.6	1.8%	-5	5
CCSc1nnc(NC(=O)CCn2c(=O)oc3ccccc32)s1	-3	0.8	1.0	1.3%	1	2
CCN1C(=O)N(C)[C@@H](c2ccccc2)C(C(C)=O)=C1C	-2	4.4	-0.5	0.7%	-1	6
Cn1c(CSCc2ccc(Cl)cc2)nnc1SCC(=O)Nc1nccs1	-1	0.9	-0.2	-0.5%[38.3 µM]	2	-2
Cc1ccc(Cn2c(CCCO)nc3ccccc32)cc1	-4	1.1	1.1	-0.5%	-5	-15
COc1cc(NC(=O)Cn2ccsc2=N)c(C)cc1[N+](=O)[O-]	-7	8.9	0.0	0.3%	-20	-7
CCN(CC)CC(C)(C)COC(=O)c1oc2ccccc2c1C	-8	-4.9	1.0	11%	4	-3
c1ccc(OCCN2CCN(C(c3ccccc3)c3ccccc3)CC2)cc1	-2	-1.0	24	u	-18	-10
CC(=O)Nc1sc2c(c1C(N)=O)CCC2	17	-1.8	-0.9	-1.5%	-1	-3
COc1ccc(CNC(=O)c2c(-c3cc(Cl)c(OC)c(Cl)c3)noc2C)cc1	-3	-1.1	0.1	0.8%	3	-9
CC(C)CCn1c(SCC(=O)c2ccccc2)nc2c1c(=O)[nH]c(=O)n2C	2	-2.3	-0.9	1.3%	5	-6
COc1cccc(-c2cc(CNC(=O)[C@H]3O[C@@H](n4ccc(=O)[nH]c4=O)[C@H](O)[C@@H]3O)no2)c1	-2	0.8	0.2	0.9%	4	x
Cc1cc(NC(=O)C2CC(c3ccc(F)cc3)=NO2)no1 (stereo unspecified)	-7	-1.8	-1.1	0.7%	4	-10
Cc1ccccc1OCCSc1nc(C)c(Cc2ccccc2)c(=O)[nH]1	x	x	4.3	-0.4%	x	-22
CC1CCCN(C(C(=O)Nc2ccc(C(C)C)cc2)c2ccc3c(c2)OCO3)C1 (stereo unspecified)	-3	-4.2	-0.6	u	-5	3
CCCc1cc(=O)[nH]c(SCC(=O)Nc2ccc(N3CCCCC3)cc2)n1	-6	4.0	-1.1	-0.4%	-4	16
Cn1cc(-c2cc3n(n2)CCC(=O)N3CCCC(=O)NCc2ccccc2)c2ccccc21	x	x	0.7	9.7%	x	-2
O=C(CSC1=NCCS1)N1CCCC1	-2	1.6	0.9	1.0%	7	18
Cc1cc2cc3c(cc2nc1SCC(=O)O)OCCO3	-7	-1.7	1.8	-0.1%[38.3 µM]	1	28
C=CCOC(=O)C1=C(C)NC(C)=C(C(=O)OCC=C)C1c1cccs1	-12	-1.1	2.2	4.0%	17	25
Nc1nnc(COc2ccc(Br)cc2Br)s1	-6	-0.9	-0.3	-1.5%[38.3 µM]	0	5
CCc1nc(N2CCN(C(=O)CCCl)CC2)c2c3c(sc2n1)CCCC3	-11	1.2	1.6	1.6%	-3	35
COc1ccc(NC(=O)c2oc3ccccc3c2NC(=O)c2ccc(OC)c(OC)c2)c(OC)c1	-2	-1.6	1.2	-0.1%	2	-3
Cc1ccc(C)c(NC(=S)NC2CC3CCC(C2)N3Cc2ccco2)c1 (stereo unspecified)	-23	0.6	-0.4	x	-1	-18
O=C(O)CCc1ccc(-c2ccccc2)n1NC(=O)c1sc2ccccc2c1Cl	-15	-2.4	-0.1	-0.6%	-29	-9
CN1CCN(c2nc3c(c(=O)[nH]c(=O)n3C)n2CCOc2ccccc2)CC1	-29	-2.2	0.7	-0.7%	4	-2
CCCCCCC[C@@H](C/C=C/CCC(=O)O)OC	x	1.1	-0.7	-1.2%	9	-4
O=C(NCCc1ccc2c(c1)OCCO2)c1cc2ccccc2o1	-6	1.1	1.2	1.9%[38.3 µM]	-2	0
COc1ccc(NC(=O)CSCC(=O)N(C)Cc2c(F)cccc2Cl)cc1	2	1.5	0.5	-1.4%	7	5
COCCn1c(=O)[nH]c2cc(C(=O)Nc3ccc(OC)c(Cl)c3)ccc2c1=O	-6	-8.7	0.0	u	2	0
O=[N+]([O-])c1ccc(C[n+]2ccccc2)cc1	-8	-3.7	0.2	-1.1%	16	-2
Cc1cccc(OCC(=O)Nc2cc(C)c(C)cc2O)c1	2	2.7	-0.5	x	-1	-1
CCOc1ccc(C(=O)c2cn(Cc3ccccc3OC)c3cc4c(cc3c2=O)OCCO4)cc1	x	x	0.5	2.6%	x	-13
CCCCn1c(=O)c2oc3ccccc3c2n(CC(=O)Nc2ccccc2OC)c1=O	x	x	-0.7	0.8%	x	-6
Cc1ccccc1-n1nc(C)c2cc(C(=O)NC3CC3)sc21	-9	-0.2	0.2	-5.2%[38.3 µM]	1	-4
CC1=C(C(=O)OC2CCCC2)C(c2ccc(Cl)cc2)CC(=O)N1 (stereo unspecified)	x	x	-1.3	4.6%	x	-4
O=C(NCC1COc2ccccc2O1)c1cccc(S(=O)(=O)N2CCCCC2)c1 (stereo unspecified)	1	8.7	3.5	-0.3%	0	5
O=C(NCCS(=O)(=O)N1CCN(c2ccccc2)CC1)C1CCCCC1	-10	-1.5	0.2	0.1%	4	-11
C=CCOC(=O)CN1C(=O)c2ccccc2C1=O	-4	-1.2	0.2	2.9%[38.3 µM]	3	6
CCOc1ccccc1OCCN1CCC(Cc2ccccc2)CC1	-19	0.0	-1.1	0.4%	-15	-16
Cc1ccc(-c2cc(C(=O)NCC3(N(C)C)CCCCC3)c3ccccc3n2)o1	-21	-1.3	-0.2	0.0%	-3	-6
CC(C)CC(=O)NC(=S)Nc1ccc(NC(=O)c2ccco2)cc1	18	1.9	1.5	5.9%	-4	16
Cc1cc(C)n(CCc2nc3c4ccccc4nc(N4CCN(c5ccccc5F)CC4)n3n2)n1	x	x	-0.8	1.0%	x	-7
CCOC(=O)CSc1nc2cc(OCC)ccc2cc1C#N	-3	-1.1	2.1	x	26	-7
CCOC(=O)CCCCC(=O)c1[nH]c(=O)[nH]c1C[n+]1ccc(C)cc1	u	5.2	1.0	-1.3%	3	-4
Cc1ccc(NS(=O)(=O)c2cc(NC(=O)c3cc4c(s3)CCCC4)ccc2C)c(C)c1	-16	-2.6	0.7	-2.3%	0	-18
O=c1[nH]n(CCO)c(=O)c2cccnc12	-8	-4.4	-0.6	0.2%	3	-2
CCc1nc2onc(C)c2c(=O)n1CC(=O)O	x	x	-0.6	1.9%	x	-9
